# 2A StopGo: High Throughput Screening for Foot and Mouth Disease Virus Antivirals. human cells with a luciferase reporter of 2A StopGo recoding; control for the full effect not named in the record. AID 1159524, 2015. hit rate 1.2% among 410,000. Potency, µM (highest dose often 57.9 µM), without a hit: top-dose signal change, negative = less light; active = well fitted falling curve with a large enough effect; inconclusive = small, poorly fitted or top-dose-only effect; inactive = no such curve, though single readings can be large or run the other way; tested in HEK293T cells; further: on the % scale 0 is the no-effect control and ±100 the full control effect; nearly all actives have a fitted effect of over 45% in size; luciferase light after 4 h
# RE007 growth inh: qHTS Assay for Inhibitors of the HIV-1 protein Vpr. hit rate 0.21% among 360,000. S. pombe RE007 Vpr strain, BacTiter-Glo ATP luminescence, 24 h; control for the full effect not named in the record. Potency, µM (doses to about 92.2 µM), for the others: top-dose activity change, negative = less growth; active = well fitted falling curve with a large enough effect; inconclusive = small, poorly fitted or top-dose-only effect; inactive = no such curve, though single readings can be large or run the other way;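 further: on the % scale 0 is the no-effect control and ±100 the full control effect; nearly all actives have a fitted effect of over 50% in size; the assay follows cell death caused by Vpr and the record does not say whether a fall means rescue or toxicity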
#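 Fission yeast strain RE007, carrying one chromosomally integrated HIV-1 vpr copy, was seeded at OD 0.01 in PMG+AL medium with 23 nL pinned compound. After 24 h at 30 °C and 99% humidity, viability was read by BacTiter-Glo luminescence.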
# LASV entry inh: qHTS for Inhibitors of binding or entry into cells for Lassa Virus; Lassa virus pseudotype entry inhibition, cell reporter; control for the full effect not named in the record; Potency, µM (titrated, usually from 37.9 µM), for inactives: at the top dose activity change, negative = inhibition, usual class: inhibitors; hit rate 1.2% among 300,000; AID 540256, 2011; active means well fitted inhibition curve with a large enough effect; inconclusive means small, poorly fitted or top-dose-only effect, or effect the other way; inactive means flat fitted curve, though single readings scatter; tested in HEK293 cells; further: on the % scale 0 is the no-effect control and ±100 the full control effect; nearly all actives have a fitted effect of over 50% in size; luciferase read-out
# Cruzain inh Det: qHTS Assay for Promiscuous and Specific Inhibitors of Cruzain (with detergent); Cruzipain (Trypanosoma cruzi), P25779; purified cruzain, Z-FR-AMC fluorescence, 0.01% Triton; Potency, µM, for inactives: max response, negative = inhibition, hits mostly inhibitors; hit rate 0.43% among 200,000; active means well fitted curve in the direction sought with a large enough effect; inconclusive means small, poorly fitted or top-dose-only effect, or another doubt; inactive means no such curve, though single readings can be large; an effect the other way counts as inactive or inconclusive;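 further: plate controls were neutral wells for no effect and buffer without enzyme for full effect; nearly all actives have a fitted effect of over 40% in size; top concentration of the series not given in the record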
# Target sequence (P25779 123-467 limits assumed): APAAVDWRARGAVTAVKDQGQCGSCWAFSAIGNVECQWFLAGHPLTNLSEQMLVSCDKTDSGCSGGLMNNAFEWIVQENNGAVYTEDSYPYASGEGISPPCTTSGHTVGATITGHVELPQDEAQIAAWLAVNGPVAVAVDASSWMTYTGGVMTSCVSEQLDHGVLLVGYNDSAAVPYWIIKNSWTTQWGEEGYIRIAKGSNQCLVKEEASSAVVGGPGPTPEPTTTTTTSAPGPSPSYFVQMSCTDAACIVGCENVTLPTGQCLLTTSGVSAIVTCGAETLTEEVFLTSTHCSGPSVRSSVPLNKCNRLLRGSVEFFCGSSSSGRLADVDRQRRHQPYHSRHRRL
#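 15 min RT preincubation of 1.5 nM cruzain with compound, then 2 uM Z-FR-AMC added; kinetic AMC fluorescence, 60 s delta. Triton X-100 0.01%, pH 5.5.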
# Marburg entry inh: qHTS for inhibitors of binding or entry into cells for Marburg Virus; Marburg virus pseudotyped entry inhibition, cell reporter; control for the full effect not named in the record; about a third of the inactives were read at about 46 µM; Potency, µM (series often up to 37.8 µM), for the others: at the top dose activity change, negative = inhibition, hits mostly inhibitors; hit rate 1.8% among 300,000; AID 540276, 2011; active = well fitted inhibition curve with a large enough effect; inconclusive = small, poorly fitted or top-dose-only effect, or effect the other way; inactive = flat fitted curve, though single readings scatter; tested in HEK293 cells; about a fifth of its hits are not listed in these tables; further: on the % scale 0 is the no-effect control and ±100 the full control effect; luciferase read-out
# NS1 function inh: qHTS Assay for Inhibitors of Influenza NS1 Protein Function; S. cerevisiae slowed by influenza A NS1, growth recovery by OD600; Potency, µM (doses to about 46.1 µM), without a hit: top-dose activity, positive = more growth; hit rate 0.4% among 270,000; AID 2326, 2010; further: actives are rising curves; nearly all actives have a fitted effect of over 50% in size
#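 In this qHTS, NS1 from influenza A is expressed in budding yeast, where it slows growth. Cells are switched from glucose to 2% galactose medium (pH 6.0, -URA), treated with compound, and growth recovery is read at OD600.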
# Cruzain inh noDet: qHTS Assay for Promiscuous and Specific Inhibitors of Cruzain (without detergent); Cruzipain (Trypanosoma cruzi), P25779; purified cruzain, Z-FR-AMC fluorescence, no detergent; Potency, µM, without a hit: max response, negative = inhibition, usual class: inhibitors; hit rate 2.3% among 200,000; AID 1476, 2009; active means well fitted curve in the direction sought with a large enough effect; inconclusive means small, poorly fitted or top-dose-only effect, or another doubt; inactive means no such curve, though single readings can be large; an effect the other way counts as inactive or inconclusive;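 further: plate controls were enzyme without inhibitor for no effect and buffer without enzyme for full effect; nearly all actives have a fitted effect of over 40% in size; top concentration of the series not given in the record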
#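 Purified cruzain at 1.5 nM, pre-incubated 15 min with compound at room temperature in 100 mM sodium acetate pH 5.5, 5 mM DTT, 0.00005% Triton X-100. Reaction started with 2 uM Z-FR-AMC; AMC fluorescence increase over 60 s gives rate.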
# SARS PLpro yeast: qHTS of Yeast-based Assay for SARS-CoV PLP; hit rate 0.19% among 330,000; Potency, µM (top dose mostly 32.9 µM), for inactives: at the top dose activity, positive = growth rescue; S. cerevisiae expressing SARS-CoV PLpro, growth rescue; control for the full effect not named in the record; further: 0% is about no effect; nearly all actives have a fitted effect of over 55% in size; growth read by luminescence after 48 h
# Starred values were filed as active, the others as inactive; ? = inconclusive; · = no result given; [ ] = dose if it differs, or a comment. Unless noted, the call rests on the fitted dose curve; in most records, active means well fitted rising curve with a large enough effect; inconclusive means small, poorly fitted or top-dose-only effect; inactive means no such curve, though single readings can be large or run the other way. Potency means the concentration at half of the fitted maximal effect.
SMILES,2A StopGo,RE007 growth inh,LASV entry inh,Cruzain inh Det,Marburg entry inh,NS1 function inh,Cruzain inh noDet,SARS PLpro yeast
O=c1c(-c2cccc([N+](=O)[O-])c2)[n+]([O-])c2ccccc2n1O,-4.9%,1.8%,·,·,·,-2.8%,·,-0.7%
CC(C)C(OC(=O)c1ccco1)C(=O)NC1CCCCC1 (centres undefined),-27.5%,3.0%,2.1%,1.8%,-3.9%,2.6%,3.1%,-4.8%
OC1CCCN(C(=S)NCc2ccccc2)C1 (centres undefined),1.3%,3.8%,-11.8%,·,17.4%[14.2 µM],1.7%,·,0.6%
O=C(NCC1CCCO1)c1ccccc1S(=O)(=O)c1ccc([N+](=O)[O-])cc1 (centres undefined),0.6%,2.3%,-1.8%,·,0.3%[46.1 µM],·,·,0.3%
Cc1ccsc1CN(C(=O)c1oc2ccc(Br)cc2c1C)C1CCS(=O)(=O)C1 (centres undefined),-12.8%,·,?,-6.2%,?,·,-1.8%,·
O=C(NC(=S)Nc1ccc2oc(=O)ccc2c1)c1ccco1,0.0%,3.2%,-11.5%,·,-3.8%[46.1 µM],-2.9%,·,-7.6%
O=C(CSC(=S)N1CCOCC1)c1ccccc1,?,-11.0%,14.6µM*,-2.3%,7.31µM*,16.9%,4.1%,-10.4%
CCN(c1ccccc1)c1nc(Cl)nc2c1cnn2C,-26.4%,10.4%,-22.6%[46.1 µM],·,3.9%[46.1 µM],·,·,·
COc1ccccc1NC(=O)CSc1nccc(=O)[nH]1,-0.2%,?,20.0%,3.3%,-3.5%,13.5%,-7.1%,2.0%
O=C(O)c1cc2cccc(S(=O)(=O)N3CCCCC3)c2cc1O,58.3%[activator],21.1%,?,·,4.8%[46.1 µM],-5.0%,·,3.5%
COC(=O)c1ccc(NC(=O)CCn2cccn2)cc1,5.5%,·,11.4%[46.1 µM],0.3%,·,·,-4.2%,·
COCCN=C1NN=C(c2ccc(C)c([N+](=O)[O-])c2)CS1,51.9%[activator],-4.9%,6.9%,·,?,·,·,-0.2%
CCOC(=O)C1(CC2CCCCO2)CCN(Cc2cc3ccccc3[nH]2)CC1 (centres undefined),-22.6%,5.8%,10µM*,·,?,1.1%,·,0.8%
O=S(=O)(Nc1ccc(F)cc1F)c1ccc(-n2cccn2)cc1,28.2%,·,14.4%[46.1 µM],-6.1%,·,·,-3.6%,·
CC[n+]1c(P(=O)([O-])c2ccccc2)[nH]c2ccccc21,-14.4%,5.6%,-8.8%,8.2%,-8.6%,-22.5%,-2.9%,-7.7%
COc1ccc(C2(O)CC3CCC(C2)N3c2cc(C)nc(-c3ccccc3)n2)cc1 (centres undefined),?,-18.6%,2.4%,-5.1%,11.6µM*,-33.3%,-7.3%,-15.8%
Cn1ccnc1/C(=N\NC(=O)c1ccccc1)c1cccc([N+](=O)[O-])c1,-15.1%,7.4%,-8.5%,·,21.0%[46.1 µM],·,·,6.9%
CCCCN(C)CCNC(=O)c1ccc(Cn2c(=O)[nH]c3cc(OC)c(OC)cc3c2=O)cc1,-19.1%,·,5.5%[46.1 µM],-1.2%,?,·,-4.2%,·
CC1CCN(C(=O)CCc2ccc(S(=O)(=O)NC(C)C)cc2)CC1,·,14.9%,10.3%,4.6%,-23.1%,-2.8%,13.7%,5.5%
Cc1ccc(CNc2nc3ccccc3n2C)cc1,1.0%,-2.0%,·,·,·,-9.2%,·,-5.9%
Cc1cc(CNC(=O)c2cc(COc3ccc(F)c(F)c3)on2)nn1C,14.6%,0.3%,-13.5%,·,29.4%,-14.8%,·,-0.5%
O=[N+]([O-])c1ccc(F)c(N=Cc2ccc(Br)s2)c1,-14.3%,-0.3%,-7.5%,-2.9%,-4.3%,7.4%,1.2%,10.7%
ON=C1c2ccccc2-c2cc(Br)ccc21,0.0%,-8.9%,1.1%,·,15.8%,·,·,·
CCN(CC)CC1(O)CCN(C(=O)c2ccc(Cl)c(Cl)c2)CC1,-17.0%,3.3%,?,·,?,7.4%,·,0.9%
CCCCCCN=C(C)c1c(O)n(CCCC)c(=O)[nH]c1=O,-22.0%,-6.3%,-29.4%,-0.8%,-13.0%,-10.3%,15.2%,-5.9%
COC(=O)c1ccc(N2C(=O)CC(N3CCC(O)(c4ccc(Br)cc4)CC3)C2=O)cc1 (centres undefined),?,35.5µM*,8.4%,-1.1%,11.9%,-159.2%,5.9%,-54.9%
CCC(=NCCCN(CC)CC)c1c(O)n(C2CCCCC2)c(=O)[nH]c1=O,-21.0%,-6.3%,-9.5%,2.5%,-3.8%,-3.5%,3.1%,2.8%
COCCCNC(=S)N/N=C/c1ccc(N(C)C)cc1,5.3%,10.7%,1.0%,·,-8.2%[46.1 µM],·,·,21.9%
O=C(CNC(=O)c1ccco1)N/N=C/c1ccccc1[N+](=O)[O-],17.3%,5.5%,20.0%,·,9.2%,·,·,-0.5%
CCOC(=O)c1sc2nc(CSc3ccccc3)nc(N3CCCN(C)CC3)c2c1C,-19.2%,-3.2%,·,·,·,-0.4%,·,0.7%
CNC(=O)c1cc(S(=O)(=O)N2CC(C)OC(C)C2)ccc1N1CCCCC1 (centres undefined),-18.0%,-19.7%,-1.5%,·,-3.3%,-8.7%,·,-2.1%
Cc1cc(C)c(COCc2cc(/C=N/O)c(C)cc2C)cc1/C=N/O,·,-17.5%,-22.7%,-14.6%,?,-1.9%,-8.6%,-4.8%
Cc1cc(NS(C)(=O)=O)c(=O)n(Cc2c(F)cccc2Cl)c1,4.3%,6.1%,·,·,·,9.1%,·,4.9%
COc1cccc(C2=NC(C)(C)NC(c3ccccc3O)C2)c1 (centres undefined),44.1%[activator],?,1.2%,-0.6%,25.9%,-8.9%,?,-7.7%
O=C(COC(=O)C12CC3CC(CC(C3)C1)C2)Nc1nc2c(F)c(F)c(F)cc2s1,?,12.7%,0.6%,-5.7%,?,9.1%,-12.6%,-13.5%
Cc1ccc(CN2C(=O)CCSc3ccc(Cl)cc32)cc1,-19.5%,12.2%,?,-4.6%,-2.3%,-10.5%,-7.3%,4.7%
COc1ccc(COCC(O)CN2CCC(C(N)=O)CC2)cc1OC (centres undefined),-1.2%,-11.0%,7.0%[46.1 µM],·,1.0%[46.1 µM],·,·,2.0%
Cc1cc(=O)oc2cc(OCC(=O)N3c4ccccc4CC3C)ccc12 (centres undefined),-7.5%,1.5%,?,-1.4%,?,-16.2%,-1.5%,5.8%
CCCCc1ccc(NC(=S)NCc2ccc(OC)cc2)cc1,7.2%,2.6%,·,·,·,-10.1%,·,0.4%
Nc1ccc(Cl)c(S(=O)(=O)Nc2ccc(Cl)cc2)c1,37.7%[activator],-9.1%,0.3%,·,15.7%,9.0%,·,1.0%
CC1(C)CC(=O)C2=C(C1)N(c1ccc(F)cc1)C(=O)C2(NC(=O)c1ccccc1F)C(F)(F)F (centres undefined),-5.9%,-8.9%,1.4%,-5.5%,-22.6%,20.5%,18.2%,6.3%
O=C(O)c1cccc(Nc2nc3ccccc3nc2NS(=O)(=O)c2ccccc2)c1,-1.2%,0.5%,-0.5%,·,-0.9%,·,·,-2.0%
O=C(CSc1nnc(Nc2ccccc2)s1)Nc1ccc(S(=O)(=O)N2CCOCC2)cc1,?,16.2%,-11.2%,-7.7%,?,24.1%,-5.0%,10.1%
C/C(CC(=O)NCCCN1CCOCC1)=N\NC(=O)COc1cccc2ccccc12,-8.6%,-17.8%,2.1%,-2.8%,?,20.6%,7.9%,-17.3%
CCOc1ccc(NC(=O)c2cn(-c3ccc(OCC)cc3)c(=O)c3cc(OC)c(OC)cc23)cc1,-26.9%,-0.3%,-5.3%,1.1%,?,26.9%,?,-6.3%
CCC1CCCCN1C(=O)CSc1nnc(CNC(=O)c2c(F)cccc2Cl)o1 (centres undefined),-3.2%,1.8%,14.5%[46.1 µM],·,17.9%[46.1 µM],18.1%,·,-0.7%
COc1ccc(C(=O)NCC2(N3CCN(C)CC3)CCCCC2)cc1,-16.1%,·,-2.9%[46.1 µM],0.1%,-14.3%[46.1 µM],·,-0.2%,·
COc1ccccc1CNC(=O)c1nccnc1CO,-5.8%,-11.3%,10.8%[46.1 µM],·,?,-2.4%,·,0.4%
Cc1ccc(NC(=O)c2ccco2)c(NC(=O)c2ccc(Cl)cc2)c1,-25.4%,1.6%,0.4%,·,?,-0.6%,·,-11.2%
COc1ccc(CNC(=O)c2ccc(Cn3c(=O)c4cccn4c4cccnc43)cc2)cc1OC,-0.7%,·,-2.3%[46.1 µM],2.0%,·,·,-5.7%,·

# Additional entries follow:
SMILES,2A StopGo,RE007 growth inh,LASV entry inh,Cruzain inh Det,Marburg entry inh,NS1 function inh,Cruzain inh noDet,SARS PLpro yeast
NC(=O)C1CC(=O)N(c2ccc(OCC(=O)Nc3cccc(C(F)(F)F)c3)cc2)C1 (centres undefined),-14.9%,-1.4%,0.7%,-12.4%,-17.1%,?,1.2%,-5.0%
COc1ccc(NC(=O)CCc2nc(-c3ccc(C)cc3)no2)c(OC)c1,-14.1%,1.3%,7.3%,6.7%,0.0%,5.6%,-11.4%,5.8%
COC(=O)c1ccccc1NC(=O)CSc1nncn1-c1ccccn1,-1.0%,13.8%,·,·,0.6%[46.1 µM],2.6%,·,-1.0%
Cc1ccccc1C(=O)N1CCC(C(=O)Nc2ccccc2N2CCCC2)CC1,-18.9%,2.1%,-14.0%,·,-12.4%[46.1 µM],·,·,7.0%
CCCCCn1c(=O)[nH]c2cc(C(=O)N3CCN(c4ccc(OC)cc4)CC3)ccc2c1=O,-22.8%,·,11.5%[46.1 µM],0.9%,?,·,-6.0%,·
Cc1cc(C(=O)OCC(=O)N2CC(=O)Nc3ccccc32)no1,5.8%,3.2%,13.8%,2.5%,?,-2.2%,-0.6%,-1.8%
